TRPML1 blocker – human mucolipin-1 channel inhibition. activity change, negative = inhibition, % (no concentration beside the values). TRPML1-inducible cells, Ca2+ dye fluorescence, FDSS; hits give low values; inhibition of EC80 agonist-evoked calcium signal. Q9GZU1. 390,000 tested, 0.02% active; in the data active means activity change below about -50%; inconclusive means about -30% to -50%; inactive means above about -30%;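 note: stimulus is agonist 54-4 at its EC80 concentration; % is set by controls: 0 for no effect and ±100 for the full control effect; compound concentration not given in the record; the text of the record puts the active cut at -80%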
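Calcium fluorescence in TRPML1-DL cells induced overnight with Tet: a 110 s read after compound pin addition, then a 110 s antagonist read after challenge with 54-4 at 4 uM final (EC80).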
Six1-Eya2 inh – blocks human Six1 binding to Eya2; Q15475+O00167; AlphaScreen GST-Six1/His-Eya2 binding, biochemical; hits give low values; control for the full effect not named in the record; activity change, % (concentration not given with the values); 360,000 tested, 0.56% active; in the data active = activity change below about -65%; inconclusive = about -30% to -65%; inactive = above about -30%; note: % is set by controls: 0 for no effect and ±100 for the full control effect
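Homogeneous AlphaScreen proximity assay pairing GST-Six1 with His-tagged Eya2 (added as 5X mix: 250 nM and 500 nM) in 50 mM Tris pH 8.0, 300 mM NaCl, 1 mM TCEP. Glutathione donor and nickel acceptor beads; 1 h, 37 °C, dark.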
TRPV1 potentiator – enhances activation of the human vanilloid receptor TRPV1; 320,000 tested, 0.02% active; potentiation, % at 8.33 µM; AID 540277; TRPV1-expressing cells, Fluo-8 calcium influx, capsaicin EC20 potentiation; host cell line not named in the record; control for the full effect not named in the record; Q8NER1; active means potentiation above 80%; inconclusive means 30% to 80%; inactive means below 30%; note: 0% is about no effect
Target sequence (Q8NER1 whole entry, looked up): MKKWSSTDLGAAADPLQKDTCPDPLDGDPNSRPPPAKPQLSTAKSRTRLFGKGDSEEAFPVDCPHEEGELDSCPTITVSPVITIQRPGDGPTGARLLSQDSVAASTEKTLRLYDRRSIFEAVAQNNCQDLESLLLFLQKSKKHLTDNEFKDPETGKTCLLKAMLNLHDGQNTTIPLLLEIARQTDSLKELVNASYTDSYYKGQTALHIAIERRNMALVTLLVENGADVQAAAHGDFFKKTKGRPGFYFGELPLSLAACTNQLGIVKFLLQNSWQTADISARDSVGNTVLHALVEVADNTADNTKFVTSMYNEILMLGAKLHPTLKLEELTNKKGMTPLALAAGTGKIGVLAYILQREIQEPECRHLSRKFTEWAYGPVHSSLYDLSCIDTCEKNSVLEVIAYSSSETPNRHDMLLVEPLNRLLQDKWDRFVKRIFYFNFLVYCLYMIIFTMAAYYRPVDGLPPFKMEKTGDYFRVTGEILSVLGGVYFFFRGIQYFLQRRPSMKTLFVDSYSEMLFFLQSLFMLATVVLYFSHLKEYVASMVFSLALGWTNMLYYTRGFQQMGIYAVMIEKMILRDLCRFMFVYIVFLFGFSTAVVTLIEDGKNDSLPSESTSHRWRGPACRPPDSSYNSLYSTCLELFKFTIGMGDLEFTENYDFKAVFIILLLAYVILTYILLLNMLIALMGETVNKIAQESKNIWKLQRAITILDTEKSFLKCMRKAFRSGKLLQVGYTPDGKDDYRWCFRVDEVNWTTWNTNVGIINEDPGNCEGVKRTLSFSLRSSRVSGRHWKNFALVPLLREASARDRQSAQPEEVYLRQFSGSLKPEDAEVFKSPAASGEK
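TRPV1-expressing cells were cultured overnight at 35.5C and loaded with Fluo-8 calcium dye for 40 to 90 min at room temperature. After a 10 s baseline, compound was added and calcium influx was read kinetically for 3 min (ex 480/em 520 nm).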
TRPML1 agonist – human mucolipin-1 channel agonism. 410,000 tested, 0.12% active. Q9GZU1. TRPML1-expressing cells, Ca2+ dye fluorescence, FDSS; host cell line not named in the record; reference of the full effect not given here. activation, % (test concentration not listed); in the data active = activation above about 50%; inconclusive = about 30% to 50%; inactive = below about 30%; note: 0% is about no effect; the text of the record puts the active cut at 80%
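In this qHTS format, compounds were pin-transferred onto Ca8-dye-loaded TRPML1-DL cells induced with Tet overnight, and intracellular Ca2+ fluorescence was recorded kinetically for 110 s after a 10 s baseline. A subsequent 4uM final 54-4 (EC80) addition followed by a second 110 s read served as the antagonist phase.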
CtBP-E1A inh – inhibitors of CtBP/E1A interaction; AlphaScreen GST-E1A/His-CtBP binding, 1536-well; hits give low values; control for the full effect not named in the record; activity change, % (concentration not given with the values); 340,000 tested, 0.49% active; in the data active means activity change below about -65%; inconclusive means about -30% to -65%; inactive means above about -30%; note: % is set by controls: 0 for no effect and ±100 for the full control effect
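Steps: dispense buffer (Tris pH 8.0, NaCl 300 mM, TCEP 1 mM, BSA, Tween 20); add 5X protein mix (GST-E1A, His-CtBP, 125 nM each); pin 23 nL compound; 2 h at 37 °C, dark; add 5X beads (50 ug/mL); 1 h; read.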
D2 potentiator – human D2 receptor positive allosteric modulation. 360,000 tested, 0.23% active. DiscoveRx D2 beta-arrestin cells, luminescence, 90 min; 100% = 57 uM dopamine signal. P14416. potentiation, % (no concentration beside the values); active = potentiation of 50% or more; inconclusive = 30% to 50%; inactive = 30% or less;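 note: compound concentration not given in the record; tested on top of an EC20 dose of dopamine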
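PathHunter D2 cells, attached overnight at 37 deg C, received compound in DMSO plus dopamine at EC20 (50 nM final) for 90 min at 37 deg C. Beta-arrestin recruitment was read as luminescence after 1 h with detection reagent at ambient temperature.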
Starred values were filed as active, the others as inactive; ? = inconclusive; . = not tested or not shown; & = joins results of further samples.

SMILES	TRPML1 blocker	Six1-Eya2 inh	TRPV1 potentiator	TRPML1 agonist	CtBP-E1A inh	D2 potentiator
CCn1nc(C)c(/C=N/NC(=O)Cn2nnnc2N)c1C	14	3	14	0.2	0	-4
CC(C)(C)NC(=O)C(OC(=O)c1cccs1)c1ccc(C#N)cc1 (stereo unspecified)	-2	-3	10	-1.0	0	-2
NC(=O)CSc1oc(-c2ccc(F)cc2)nc1S(=O)(=O)c1ccccc1	10	4	8	0.2	-7	3
Cc1ccc(S(=O)(=O)Nc2cccc(C(=O)NCC(c3ccc(F)cc3)N3CCOCC3)c2)cc1 (stereo unspecified)	-9	5	.	-0.2	6	-2
COc1ccc(C(=O)NCC(=O)N2CCN(C(=O)c3ccco3)CC2)cc1[N+](=O)[O-]	5	2	.	0.5	9	-8
N#CC(=C=[N-])c1nc2ccccc2nc1-[n+]1ccccc1	37&-14	-3&-5	-2	-0.1&0.8	-19&-6	-14&-12
Cc1onc(-c2ccccc2Cl)c1C(=O)Nc1sc2c(c1C(N)=O)CCC(C)C2 (stereo unspecified)	-4	-4	-3	0.7	-11	3
O=C(Nc1ccccc1)c1cc(C2COCCN2C(=O)c2cccs2)on1 (stereo unspecified)	.	2	.	-0.2	1	-8
CCn1c(SCc2nc3ccccc3c(=O)[nH]2)nnc1C(C)NC(=O)c1ccccc1F (stereo unspecified)	-14	3	-4	0.5	-14	-1
CCCN(CC(=O)Nc1ccccc1C)C(=O)c1ccc(N2CCOCC2)c([N+](=O)[O-])c1	10	-1	-12	-0.5	-4	11

An excerpt from the list above, as a working copy:
SMILES	TRPML1 blocker	Six1-Eya2 inh	TRPV1 potentiator	TRPML1 agonist	CtBP-E1A inh	D2 potentiator
N#CC(=C=[N-])c1nc2ccccc2nc1-[n+]1ccccc1	37&-14	-3&-5	-2	-0.1&0.8	-19&-6	-14&-12
Cc1onc(-c2ccccc2Cl)c1C(=O)Nc1sc2c(c1C(N)=O)CCC(C)C2 (stereo unspecified)	-4	-4	-3	0.7	-11	3
O=C(Nc1ccccc1)c1cc(C2COCCN2C(=O)c2cccs2)on1 (stereo unspecified)	.	2	.	-0.2	1	-8
CCn1c(SCc2nc3ccccc3c(=O)[nH]2)nnc1C(C)NC(=O)c1ccccc1F (stereo unspecified)	-14	3	-4	0.5	-14	-1
CCCN(CC(=O)Nc1ccccc1C)C(=O)c1ccc(N2CCOCC2)c([N+](=O)[O-])c1	10	-1	-12	-0.5	-4	11

Remaining list, next part
SMILES	TRPML1 blocker	Six1-Eya2 inh	TRPV1 potentiator	TRPML1 agonist	CtBP-E1A inh	D2 potentiator
Cc1cc(C(F)F)n2ncc(C(=O)NCCc3ccccc3Cl)c2n1	53	-5	-5	-0.3	-6	8
O=C(COc1ccc([N+](=O)[O-])cc1Cl)Nc1ccc2[nH]c(=O)[nH]c2c1	17	-6	.	-0.8	-7	-1
O=C(O)c1cc(-c2ccc(Cl)s2)nc2ccccc12	20	0	7	-0.5	2	-11
Cc1ccc2oc(C(=O)N(Cc3ccncc3)CC3CCCO3)c(C)c2c1 (stereo unspecified)	-13	4	-21	0.0	2	-3
CCOC(=O)C(C)Sc1nc(-c2ccco2)cc(C(F)(F)F)c1C#N (stereo unspecified)	5	13	-29	1.5	17	-10
O=C(COc1ccccc1Cl)NNC(=O)c1ccc2c(=O)n3c(nc2c1)CCC3	2	-20	30	1.3	?	-3
O=C1CCCN1c1ccc(S(=O)(=O)Oc2cccc(Cl)c2)cc1[N+](=O)[O-]	-9	-7	.	-0.7	-11	7
CC1=C(C(=O)OCC2CCCCC2)C(c2ccc(F)cc2)NC(=O)N1 (stereo unspecified)	.	-2	-4	.	.	18
CSc1ncccc1C(=O)N1CCCC(Nc2ccc(F)c(F)c2)C1 (stereo unspecified)	4	0	.	-0.9	-1	-27
O=C(O)c1ccc(/C=C/c2nc3sc4c(c3c(=O)[nH]2)CCC4)cc1	7	-5	12	-0.1	-23	13
CCc1ccc(/C=C(\Cl)c2nc3cc(Cl)ccc3c(=O)[nH]2)cc1	-2	3	-15	-0.4	1	-18
Brc1ccc(-c2noc(CCc3ccccc3)n2)cc1	0	114	.	2.0	68	-15
CC1(C)CC(=O)C2=C(C1)N(c1ccccc1)C(=O)C2(O)C(F)(F)F (stereo unspecified)	-2	5	-1	-0.8	-8	-5
CCOc1ccc2[nH]cc(C(=O)NCc3ccccc3)c(=O)c2c1	.	-6	11	.	.	18
Cc1ccc(C(=O)OCC(=O)Nc2ccc(C(N)=O)cc2)s1	14	-9	-4	1.2	-14	-2
O=S(=O)(NCc1cccc(C(F)(F)F)c1)NCc1ccccc1F	7	1	-8	-0.2	4	-4
O=C1C(c2ccccc2)NC(=S)N1C1CCCCC1 (stereo unspecified)	.	-2	3	.	.	8
CCOC(=O)c1c(NC(=O)CSc2nncn2C)sc(C)c1C	25	4	-9	0.0	0	-6
COc1ccc(C2C(C#N)=C(N)Oc3cc4c(cc32)OCO4)cc1 (stereo unspecified)	0	-14	11	3.0	-20	5
CCOC(=O)C(C)c1c(C)[nH]c(=S)[nH]c1=O (stereo unspecified)	0	9	-4	0.6	3	-9
Cc1cc(NCCCOC(C)C)n2c(nc3ccccc32)c1C#N	4	4	-11	-0.6	.	14
COC(=O)C1=C(C)N(Cc2ccco2)C(=O)N[C@H]1c1cccc(C(F)(F)F)c1	-1	-12	-10	1.9	.	2
CC1CCCC(NC(=O)COC(=O)CCSc2ccccc2)C1C (stereo unspecified)	-4	31	-13	2.3	40	3
CCn1nnnc1SCC(=O)c1ccc(C)cc1	-15	5	-6	-0.4	5	6
O=C(c1cc2ccccc2oc1=O)N(Cc1ccccc1F)C1CCS(=O)(=O)C1 (stereo unspecified)	-8	1	-9	-0.4	1	-9
c1ccc(-n2cc(CN3CCCC(CN4CCCC4)C3)c(-c3ccc4c(c3)OCO4)n2)cc1 (stereo unspecified)	-4	-3	?	0.1	.	-9
Cc1nc2c(C(=O)N3CCCC3)cnn2c(C)c1Cc1c(F)cccc1Cl	-3	5	-10	-0.2	-4	-3
Cc1ccc(S(=O)(=O)N2CCN(S(=O)(=O)N3CCOCC3)CC2)cc1C	?	5	-3	0.3	0	-8
Cc1ccc(S(=O)(=O)NCCC(=O)OCC(=O)N(C)c2ccccc2)cc1	7	-2	0	-0.5	5	5
NC(=S)N=Nc1c(O)[nH]c2ccc(F)cc12	-12	-80*	3	2.6	13	-32
C=C(C)C(COc1c2occc2cc2ccc(=O)oc12)OC(C)(C)C(O)COc1c2occc2cc2ccc(=O)oc12 (stereo unspecified)	.	4	.	.	6	-6
O=C(COC(=O)Cc1c(Cl)cccc1Cl)NCc1ccco1	-13	-13	.	-1.3	.	-7
CC[C@@H](C)[C@@H]1CN([C@@H](CN2CCC[C@H]2CN2C(N)=NC[C@@H]2Cc2ccccc2)C(C)C)C(=N)N1CCCC1CCCC1	-3	-4	.	1.4	-7	-20
C[C@]12c3[nH]c4ccc(Cl)cc4c3CCN1C(=O)[C@@H](CC(=O)NCC13CC4CC(CC(C4)C1)C3)C[C@@H]2C(=O)N1CCCCC1	3	-3	.	-0.5	5	.
Cc1ccc(S(=O)(=O)C2(C(=O)NC3CCCC3)CC2)cc1	-7	9	-10	3.8	2	8
O=C(O)c1cccc(NC(=O)c2cn(-c3ccccc3)nc2-c2ccc(F)cc2)c1	1	-25	3	-0.4	-1	-15
COc1ccc(Br)cc1S(=O)(=O)N1CCN=C1C	16	7	-1	-0.4	-5	-12
CC(=O)N1CCCC(C(=O)c2ccc(Oc3ccccc3)cc2)C1 (stereo unspecified)	20	-4	-4	1.2	17	-3
Cc1cc(C)nc(SCc2cn3c(C)cc(C)nc3n2)n1	10	-6	15	-0.1	0	-12
O=C1NCCN1CCNc1nc(NCC2CC2)nc2cc(-c3ccccc3)sc12	.	2	.	-0.7	-14	-18
CC(=O)c1ccc(N2CCN(C(=O)COc3ccc4c(c3)CCC4)CC2)cc1	-8	0	-9	3.2	1	23
Cc1oc(CC(C)C)c(CN)c1C(=O)O	2	1	-2	0.4	5	-13
O=C(Nc1ccc(Cl)cc1)Nc1nnc(CSc2ccc(Cl)cc2)s1	-11	1	3	-0.5	9	9
COc1ccc(C)cc1NC(=O)COC(=O)C1CCN(C(=O)c2ccc(Cl)cc2)CC1	29	3	7	0.1	4	-2
Cc1ccc(-c2nc3scc(CCNS(=O)(=O)c4ccc(Oc5ccccc5)cc4)n3n2)cc1	-19	.	11	1.9	.	.
Cn1c(SCC(=O)Nc2ccc(Cl)cc2)nnc1C1CC1	-12	4	-2	-0.8	20	3
O=C(/C=C/c1c(Cl)cccc1Cl)Nc1ccncc1	0	0	-14	1.5	0	10
CCC(C)c1ccc(NC(=O)NCc2cccnc2)cc1 (stereo unspecified)	13	11	0	1.7	2	-12
COc1ccc(OCC(=O)N2CCN(C(=O)Cc3ccccc3)CC2)cc1	-1	4	9	-0.1	-5	2
Cc1ccccc1CSc1ccc(-c2ccc3c(c2)OCO3)nn1	-25	0	-10	1.6	10	-7

Rewritten with values under each structure: 7 of the compounds above.
Every second line gives: TRPML1 blocker	Six1-Eya2 inh	TRPV1 potentiator	TRPML1 agonist	CtBP-E1A inh	D2 potentiator
CC(C)(C)NC(=O)C(OC(=O)c1cccs1)c1ccc(C#N)cc1 (stereo unspecified)
→ -2	-3	10	-1.0	0	-2
NC(=O)CSc1oc(-c2ccc(F)cc2)nc1S(=O)(=O)c1ccccc1
→ 10	4	8	0.2	-7	3
Cc1ccc(S(=O)(=O)Nc2cccc(C(=O)NCC(c3ccc(F)cc3)N3CCOCC3)c2)cc1 (stereo unspecified)
→ -9	5	.	-0.2	6	-2
COc1ccc(C(=O)NCC(=O)N2CCN(C(=O)c3ccco3)CC2)cc1[N+](=O)[O-]
→ 5	2	.	0.5	9	-8
N#CC(=C=[N-])c1nc2ccccc2nc1-[n+]1ccccc1
→ 37&-14	-3&-5	-2	-0.1&0.8	-19&-6	-14&-12
Cc1onc(-c2ccccc2Cl)c1C(=O)Nc1sc2c(c1C(N)=O)CCC(C)C2 (stereo unspecified)
→ -4	-4	-3	0.7	-11	3
O=C(Nc1ccccc1)c1cc(C2COCCN2C(=O)c2cccs2)on1 (stereo unspecified)
→ .	2	.	-0.2	1	-8
